PKD1 inh = blocks activity of human protein kinase D1; Q15139; PKD1 kinase fluorescence polarization assay; inhibition, %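 (about 10 µM by stock and volumes)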; 0.056% of 200,000 active;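 active = inhibition of 50% or more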;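 also: controls were vehicle for no effect and a reference inhibitor for full effect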
GALR2 ag = activates the human galanin receptor 2; O43603; GALR2-expressing cells, agonist activation read-out; activation, %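 (tested at 5 µM)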; 0.48% of 140,000 active;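 active = above mean plus 3 SD of all compounds, about 5% in these data, not always enough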;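 also: 0% = vehicle buffer wells and 100% = reference agonist at full effect; tested in CHO reporter cells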
Target sequence (O43603 whole entry, looked up): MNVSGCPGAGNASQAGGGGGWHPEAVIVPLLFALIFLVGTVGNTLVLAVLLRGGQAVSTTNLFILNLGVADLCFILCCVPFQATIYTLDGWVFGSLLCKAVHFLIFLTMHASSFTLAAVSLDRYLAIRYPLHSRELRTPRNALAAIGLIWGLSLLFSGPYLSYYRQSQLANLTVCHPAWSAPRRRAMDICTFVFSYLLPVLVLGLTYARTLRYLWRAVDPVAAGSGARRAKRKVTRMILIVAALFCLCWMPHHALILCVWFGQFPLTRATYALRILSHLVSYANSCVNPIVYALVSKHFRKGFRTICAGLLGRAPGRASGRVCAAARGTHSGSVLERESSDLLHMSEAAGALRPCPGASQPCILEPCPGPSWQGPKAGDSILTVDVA
HSV replic up = HSV replication enhancement; 0.005% of 220,000 active; maximum fold increase; HSV replication augmentation in cells, fold increase; AID 1956;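 active = peak rise of 1.5-fold or more in the series; tested in PC3 cells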;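 also: first round at 10 µM; read as green reporter fluorescence; hits show the peak of a series up to 25 µM; 1 = signal of infected wells without compound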
RGS16-Gao = regulators of human RGS16-Galphao interaction. 0.38% of 220,000 active. binding response (% of control), % at 10 µM. bead-based flow cytometry RGS16-Galphao binding, fluorescence; actives lie on both sides. O15492+P09471;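 active = below 25% or above 175%, edge rows of some plates excepted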;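 also: Galphao activated by GDP with aluminum fluoride before binding; 100% = wells without compound and 0% = beads without RGS; some results beyond the cut were filed as inactive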
Target sequence (O15492 whole entry, looked up): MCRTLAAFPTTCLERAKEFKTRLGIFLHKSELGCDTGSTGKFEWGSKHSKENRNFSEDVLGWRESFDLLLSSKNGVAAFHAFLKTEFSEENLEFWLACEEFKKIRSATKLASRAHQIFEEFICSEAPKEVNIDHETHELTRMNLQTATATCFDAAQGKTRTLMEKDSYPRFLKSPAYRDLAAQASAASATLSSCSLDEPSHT
Target sequence (P09471 whole entry, looked up): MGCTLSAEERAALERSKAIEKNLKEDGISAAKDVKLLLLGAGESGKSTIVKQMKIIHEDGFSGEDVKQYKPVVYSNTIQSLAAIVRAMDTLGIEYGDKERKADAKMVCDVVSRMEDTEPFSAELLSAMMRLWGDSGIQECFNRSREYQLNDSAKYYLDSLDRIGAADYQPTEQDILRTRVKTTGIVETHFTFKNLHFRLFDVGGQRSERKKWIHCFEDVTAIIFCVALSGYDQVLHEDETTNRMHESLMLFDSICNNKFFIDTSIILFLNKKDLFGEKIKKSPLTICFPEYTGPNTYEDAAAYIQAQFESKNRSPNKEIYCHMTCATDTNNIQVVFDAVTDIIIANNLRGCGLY
Insulin prom inh = TRM-6 insulin promoter activity inhibition. TRM-6 cells (human fetal islet line), insulin promoter-eGFP reporter, imaging; reporter expression induced with tamoxifen. inhibition, % at 2 µM. 0.9% of 130,000 active. AID 1273;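 active = inhibition above the mean plus 3 SD, with well images judged a real hit on visual review, cut at about 60% in these data, passing the limit was not always enough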
Insulin prom inh cell count = recorded beside Insulin prom inh, whose call it bears; normalized cell count, %; measured here: cell count, toxicity; reference of the scale not given here;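 cells exposed to compound for 48 h; stained nuclei by imaging scaled within each plate; lower means fewer cells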
HSV replic up primary fold = further read-out of HSV replic up, marked with its call; fold increase; compound at 10 µM; measured here: primary screen fold increase 10 uM; tested in PC3 cells;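 GFP signal in the first replicate; 1 = infected wells without compound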
* marks the source's active call; other numbers are inactive results; i = inactive; · = not tested or not shown. Outcome played no part in choosing rows; about 1.3% have a hit in one of these screens.

Each structure is followed by: PKD1 inh | GALR2 ag | HSV replic up | HSV replic up primary fold | RGS16-Gao | Insulin prom inh | Insulin prom inh cell count
> COc1ccccc1NC(=O)Nc1cccc(NC(C)=O)c1
    · | · | i | 0.82 | 99 | · | ·
> O=C(O)C(c1ccccc1)N1C(=O)/C(=C/c2cccs2)SC1=S (centres undefined)
    · | · | i | 0.97 | 104 | · | ·
> Cn1c(=O)n(C)c2cc(NC(=O)c3ccccc3[N+](=O)[O-])c(Br)cc21
    -2 | · | i | 0.91 | 102 | · | ·
> COCC(C)NCc1cccc2ccccc12 (centres undefined)
    0 | · | i | 0.94 | 109 | -14 | 94
> N#Cc1ccccc1NC(=O)COc1c(Br)cc(Br)c2cccnc12
    2 | 0.5 | i | 0.95 | 97 | -23 | 96
> Cc1ccc(C(=O)CN2C(=O)c3ccccc3S2(=O)=O)cc1
    · | · | i | 1.1 | 89 | · | ·
> O=[N+]([O-])c1ccc(NCCNc2ccc(Cl)nn2)cc1
    -4 | 0.1 | i | 0.88 | 98 | 36 | 91
> O=C(c1ccco1)n1c(=S)nc2ccccn21
    -11 | -0.2 | i | 0.93 | 97 | · | ·
> CC(=O)Nc1ccc(C2Nc3ccccc3C(=O)N2C2CCCCC2)cc1 (centres undefined)
    -1 | -1.4 | i | 0.82 | 102 | -9 | 86
> C[N+](C)(C)c1ccc(/C=N/Nc2nc(Cl)c(C#N)c(Cl)c2Cl)cc1
    -1 | -1.1 | i | 0.84 | 61 | · | ·
> COc1cc([N+](=O)[O-])ccc1NC(=O)CC1SC(=Nc2ccc(F)cc2)N(CCC2=CCCCC2)C1=O (centres undefined)
    -6 | -1.2 | i | 0.75 | 103 | 52 | 102
> O=C(CCN1C(=O)COc2ccccc21)N1CCCCC1
    2 | -1.3 | i | 0.86 | 104 | 21 | 122
> CC1CCCCC1NC(=O)CSc1nnc(N)s1 (centres undefined)
    0 | -2.7 | i | 0.9 | 102 | -75 | 82
> CC(C)(C)c1ccc(/C=N/Nc2ccc(C(=O)O)cc2)cc1
    2 | 1.5 | i | 1.1 | 107 | -112 | 123
> COc1cccc(CN2CCN(C3CCN(c4ccccc4C)CC3)CC2CCO)c1 (centres undefined)
    2 | · | i | 0.87 | 102 | · | ·

Single records, as listed above.
Entry for CC1CCCCC1NC(=O)CSc1nnc(N)s1 (centres undefined) : PKD1 inh = 0; GALR2 ag = -2.7; HSV replic up = i; HSV replic up primary fold = 0.9; RGS16-Gao = 102; Insulin prom inh = -75; Insulin prom inh cell count = 82
Entry for COc1ccccc1NC(=O)Nc1cccc(NC(C)=O)c1 : PKD1 inh = ·; GALR2 ag = ·; HSV replic up = i; HSV replic up primary fold = 0.82; RGS16-Gao = 99; Insulin prom inh = ·; Insulin prom inh cell count = ·
Entry for C[N+](C)(C)c1ccc(/C=N/Nc2nc(Cl)c(C#N)c(Cl)c2Cl)cc1 : PKD1 inh = -1; GALR2 ag = -1.1; HSV replic up = i; HSV replic up primary fold = 0.84; RGS16-Gao = 61; Insulin prom inh = ·; Insulin prom inh cell count = ·

Going on with the list.
Each structure is followed by: PKD1 inh | GALR2 ag | HSV replic up | HSV replic up primary fold | RGS16-Gao | Insulin prom inh | Insulin prom inh cell count
> O=C(NCC1CCCO1)C1CCCN(c2ncccn2)C1 (centres undefined)
    -13 | -1.2 | i | 1.1 | 99 | -12 | 97
> Cc1[nH]nc(Nc2ccc(C(C)C)cc2)c1[N+](=O)[O-]
    · | · | i | 0.86 | 95 | · | ·
> CC1(C)CC(=O)C(C(=S)Nc2ccccc2)=C(NC2CC(C)(C)NC(C)(C)C2)C1
    -7 | · | i | 0.79 | 100 | 0 | 130
> CN1CCN(Cc2cc(Cl)c3cccnc3c2OC(=O)c2cccs2)CC1
    -11 | -1.4 | i | 0.92 | 95 | -12 | 139
> CC1CCCC(NC(=O)CSc2nnc(N)s2)C1C (centres undefined)
    -4 | -2.1 | i | 0.95 | 100 | 12 | 66
> O=C1CCC(=O)N1OCCOc1ccccc1
    -2 | · | i | 0.93 | 103 | · | ·
> CCOCCCNCc1ccc(OCC(=O)N2CCOCC2)c(OC)c1
    3 | · | i | 0.94 | 96 | · | ·
> CC(=O)C1=C(C)NC(SCC(=O)c2ccccc2)=C(C#N)C1c1ccco1 (centres undefined)
    13 | 1.0 | i | 1.1 | 96 | -57 | 101
> O=C(Nc1ccc(F)cc1)N(Cc1nnc2n1CCCCC2)c1ccccc1
    -7 | -2.0 | i | 0.87 | 104 | · | ·
> Cn1c(=O)c2c(nc(Cc3ccc(N)cc3)n2C)n(C)c1=O
    · | · | i | 1.2 | 102 | · | ·
> CCOc1ccc(NC(=O)c2ccc(CC)s2)c([N+](=O)[O-])c1
    -1 | · | i | 1 | 104 | · | ·
> CCC(C(=O)c1ccccc1)P(=O)(NN)c1ccccc1 (centres undefined)
    · | · | i | 1.1 | 101 | · | ·
> Cc1ccc(NC(=S)N2CCN(c3ncccn3)CC2)cc1C
    -9 | -0.8 | i | 1.1 | 103 | · | ·
> Cc1cccc(NC(=O)Nc2ccc(S(N)(=O)=O)cc2)c1
    · | · | i | 0.85 | 102 | · | ·
> CCc1ccc[n+](-c2[nH]c(=O)sc2/C=N/N=C(\N)[O-])c1
    · | · | i | 0.64 | 98 | · | ·
> COc1ccc(C2C(C(=O)OCC3CCCO3)=C(C)NC3=C2C(=O)CC(c2ccco2)C3)cc1O (centres undefined)
    0 | -3.0 | i | 0.91 | 96 | -8 | 55
> O=C(Oc1oc(-c2ccco2)nc1C=Nc1ccccc1)c1ccco1
    -13 | -1.6 | · | · | 65 | -40 | 98
> CCCCOc1ccc(C2=NNC(=O)CC2)cc1
    -13 | 0.6 | i | 0.82 | 103 | -26 | 146
> COc1cc(NC(=O)CN(C)S(=O)(=O)c2ccc(C)cc2)cc(OC)c1
    2 | 0.3 | i | 1.2 | 112 | 8 | 68
> Cc1c(NC(=O)CN2CCN(C(c3ccccc3)c3ccccc3)CC2)c(=O)n(-c2ccccc2)n1C
    9 | -0.7 | i | 0.99 | 106 | 60 | 76
> CCOc1ccc(N(C)S(=O)(=O)c2ccc3[nH]cc(C(=O)NCC4CCCO4)c(=O)c3c2)cc1 (centres undefined)
    -5 | -1.1 | i | 0.79 | 111 | 32 | 135
> CCc1ccccc1NC(=O)CCN1C(=O)C2C3CCC(C3)C2C1=O (centres undefined)
    -7 | · | i | 0.94 | 107 | · | ·
> CCOC(=O)CSc1c(-c2cccs2)[nH]c2ccccc12
    -10 | -1.1 | i | 0.94 | 102 | -59 | 149
> O=C(Cn1cc2c(n1)CCCC2)NC1CCCCCC1
    2 | -3.4 | i | 1 | 104 | -10 | 86
> CCCCc1ccc(NC(=O)CC(C)C)cc1
    0 | · | i | 0.92 | 112 | 44 | 56
> Cc1ccccc1NC(=O)C(C)n1c2ccccc2c2nc(=O)cc(C)n21 (centres undefined)
    · | · | i | 0.62 | 118 | · | ·
> CC12CCC(C(=O)Nc3ccccc3Cl)(C(Br)C1=O)C2(C)C (centres undefined)
    -2 | -1.9 | i | 0.94 | 102 | -54 | 102
> O=S(=O)(Nc1ncccn1)c1ccc(NC(=S)Nc2ccc(Cl)cc2)cc1
    · | · | i | 0.86 | 106 | · | ·
> Cc1nc2cc(NCc3ccccc3O)ccc2n1Cc1ccccc1
    3 | · | i | 0.97 | 108 | · | ·
> Cc1cc(C)c(C2C(C#N)=C(N)Oc3n[nH]c(C)c32)cc1CN1CCCC1 (centres undefined)
    0 | -2.1 | i | 1.2 | 105 | 57 | 72
> CC(=O)c1ccc(NC(=O)CNCC(c2ccccc2)N(C)C)cc1 (centres undefined)
    -1 | · | i | 1.1 | 101 | · | ·
> Cc1nn(-c2ccccc2)c(C)c1C1C(C#N)=C(N)Oc2n[nH]c(C)c21 (centres undefined)
    1 | -3.7 | i | 1.1 | 105 | 67 | 125
> CCOC(=O)CSc1nnc(CNc2cccc(Cl)c2)n1C
    4 | -1.7 | i | 1 | 100 | 62 | 92
> O=C1/C(=C/c2ccccn2)SC(=S)N1CCc1ccccc1
    · | · | i | 0.88 | 102 | · | ·
> Cc1ccsc1CNC12CC3CC(CC(C3)C1)C2
    1 | · | i | 0.99 | 109 | -47 | 123
> COC(=O)Cc1csc(Nc2ccc(F)c(Cl)c2)n1
    -8 | · | i | 0.84 | 104 | · | ·
> CCn1c(C(=O)N2CCC(C(=O)NCCCSC3CCCCC3)CC2)cc2sccc21
    14 | -1.2 | i | 0.86 | 103 | · | ·
> COc1ccc([N+](=O)[O-])cc1/C=N/Nc1nn[nH]n1
    -5 | · | i | 1 | 103 | -18 | 117
> O=C(Nc1nc2ccccc2n1Cc1ccccc1)c1ccc(COc2ccccc2[N+](=O)[O-])o1
    -1 | -1.3 | i | 1 | 100 | 25 | 78
> O=C(NC1CCS(=O)(=O)C1)Oc1ccc(Cl)cc1 (centres undefined)
    -1 | -0.1 | i | 0.84 | 107 | 56 | 80
> CCC(=O)N1CCCc2ccccc21
    · | · | i | 0.91 | 102 | · | ·
> Cc1cccnc1NC(=O)COc1ccc2oc3c(c2c1)CCCC3
    3 | -1.7 | i | 0.93 | 100 | -433 | 38
> CSc1ccc(S(=O)(=O)Nc2ccc(N3CCOCC3)c(Cl)c2)cc1
    -18 | -1.8 | i | 0.75 | 97 | 35 | 112
> O=C(NCc1cccnc1)c1ccc(CS(=O)(=O)Cc2ccc(Cl)cc2)o1
    -7 | -0.1 | i | 0.93 | 108 | · | ·
> CCC(CO)NC1=C([N+](=O)[O-])C(=O)CC(C)(C)C1 (centres undefined)
    10 | 0.2 | i | 1.2 | 106 | · | ·

Ordered by value in HSV replic up primary fold (rising): three of the compounds above.
Molecule,PKD1 inh,GALR2 ag,HSV replic up,HSV replic up primary fold,RGS16-Gao
Cc1cccnc1NC(=O)COc1ccc2oc3c(c2c1)CCCC3,3,-1.7,i,0.93,100
Cc1ccsc1CNC12CC3CC(CC(C3)C1)C2,1,·,i,0.99,109
Cc1nn(-c2ccccc2)c(C)c1C1C(C#N)=C(N)Oc2n[nH]c(C)c21 (centres undefined),1,-3.7,i,1.1,105

Additional structures follow:
SMILES,PKD1 inh,GALR2 ag,HSV replic up,HSV replic up primary fold,RGS16-Gao,Insulin prom inh,Insulin prom inh cell count
c1ccc(-c2nnc(CSc3nnc(-c4cccs4)o3)o2)cc1,0,-1.2,i,0.86,97,·,·
Cc1ccc(/C=N/NC(=O)CN2C(=O)CSc3ccccc32)o1,·,·,i,0.86,101,·,·
Cc1ccc(Cn2ccc(NC(=O)c3nc4ncccn4n3)n2)cc1,-1,0.8,i,1.1,101,51,108
O=C(COc1ccccc1[N+](=O)[O-])Nc1ccc(NC(=O)c2cc3ccccc3o2)cc1,-2,·,i,0.8,100,·,·
O=C(O)COc1cccc2ccccc12,-1,-3.2,i,0.82,100,-32,56
Cc1cc(C(=O)COC(=O)c2ccc(O)cc2)c(C)n1CC1CCCO1 (centres undefined),-5,·,i,1.1,111,18,91
O=C(O)COCC(=O)NCc1csc2ccc(Cl)cc12,·,·,i,0.98,102,·,·
O=C1Nc2ccccc2N(O)N1c1ccc(Cl)c(Cl)c1,2,·,i,1.2,99,·,·
COc1ccc(NC(=O)c2cc(S(=O)(=O)N(C)C)ccc2N2CCCC2)cc1Cl,-5,-1.1,i,0.98,99,17,149
Cc1cc(C(=O)Nn2c(C3CCCCC3)nc3ccccc3c2=O)ccc1[N+](=O)[O-],-1,-0.1,i,1.1,125,13,84
CCOc1ncccc1C(=O)Nc1ccc2c(C)cc(=O)oc2c1,1,3.9,i,0.83,103,·,·
O=C(Nc1ncnc2sc3c(c12)CCCCC3)c1ccco1,23,-1.7,i,0.99,102,29,112
Cc1ccc(Nc2ccc(N)cc2S(=O)(=O)O)cc1,·,·,i,1.2,99,·,·
O=C(O)CNC(=O)CCCn1nnc2ccccc2c1=O,·,·,i,1.4,111,·,·
CCOc1cc(C)c(C(C)C)cc1S(=O)(=O)n1ccc(C)n1,-3,-1.4,i,0.91,104,82*,145*

Bioassay records deposited in PubChem BioAssay by several laboratories.
